# CSC inhib – blocks cancer stem cells; cancer stem cell-like cells viability, luminescence; inhibition, % at 7.5 µM; hit rate 1.1% among 300,000;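 active = mean at 75% or more and at least half the replicates too; tested in HMLE shEcad cells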;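 note: 0% = median of negative and 100% = median of positive control wells; the first replicate is given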
# Env fusion inh – HIV envelope-mediated fusion inhibition; HeLa-JRFL Env/CEM21 cell fusion, luciferase; inhibition, % at 12.3 µM; hit rate 1.1% among 360,000; AID 651610;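 active = mean replicate inhibition score of at least 50 and every replicate individually at or above 50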;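 note: 0% = plate neutral controls and 100% = maraviroc near 300 nM; one replicate is shown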
# Yeast UUG start – alters start codon recognition fidelity in yeast. S. cerevisiae UUG-firefly luciferase reporter, luminescence/redox ratio. activity score, % at 18.7 µM. hit rate 0.13% among 350,000. AID 602363;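 active = replicate mean at a twofold rise or more, about +100% in these data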;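 note: firefly luciferase made from a UUG start codon reports start codon fidelity; reporter light over untreated wells divided by growth signal over untreated wells; some hits fall short of that in this replicate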
# MT1-MMP act inh – blocks activation of human MT1-MMP; HT1080 RFP-PRO-GFP cells, GFP/RFP ratio fluorescence, overnight; percent of plate control window, DMSO zero; GFP/RFP ratio change, % at 20 µM; hit rate 0.061% among 360,000;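 active = GFP/RFP ratio change of at least 30% with cell ATP level not reduced by more than half and red fluorescence within 50% of control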; note: strong numbers were not always called active
#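 Material: RFP-PRO-GFP reporter HT1080 cells. Dosing: single-point 20 µM compound, 1% DMSO. Controls: DMSO and RFP-L50D-GFP cell wells. Timing: cells overnight before dosing, compound overnight, 37 °C, 5% CO2. Measure: GFP/RFP fluorescence ratio.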
# PABP polyA inh – blocks human PABP binding to poly(A) RNA; P11940; fluorescence polarization; inhibition, % at 35 µM; hit rate 1% among 290,000;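 active = 50% or more with normal probe brightness, or confirmed in later tests; about a fifth of its hits are not listed in these tables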;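 note: calls also rest on retests at 20 µM and on dose response follow-up; controls were probe without protein and protein plus probe with vehicle; some compounds called inactive have numbers as strong as hits; many hits fall short of the cut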
# Target sequence (P11940 whole entry, looked up): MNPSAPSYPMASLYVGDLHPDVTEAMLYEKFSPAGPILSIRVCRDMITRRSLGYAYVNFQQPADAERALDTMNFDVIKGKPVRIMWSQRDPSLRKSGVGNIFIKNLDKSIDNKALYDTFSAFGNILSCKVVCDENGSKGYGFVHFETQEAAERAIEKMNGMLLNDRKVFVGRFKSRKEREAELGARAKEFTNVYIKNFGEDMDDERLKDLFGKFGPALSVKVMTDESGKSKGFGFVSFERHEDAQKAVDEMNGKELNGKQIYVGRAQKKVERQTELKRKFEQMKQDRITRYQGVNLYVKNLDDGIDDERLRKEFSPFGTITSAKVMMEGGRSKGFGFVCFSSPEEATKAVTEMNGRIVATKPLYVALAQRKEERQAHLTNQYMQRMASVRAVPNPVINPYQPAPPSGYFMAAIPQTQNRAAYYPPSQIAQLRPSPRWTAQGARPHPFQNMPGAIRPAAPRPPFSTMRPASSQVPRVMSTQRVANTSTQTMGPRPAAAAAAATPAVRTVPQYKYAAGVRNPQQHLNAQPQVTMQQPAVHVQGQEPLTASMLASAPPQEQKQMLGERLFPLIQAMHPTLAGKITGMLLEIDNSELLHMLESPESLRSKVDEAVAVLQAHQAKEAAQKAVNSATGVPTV
# Rce1 inh – blocks yeast Ras-converting enzyme; AID 2563; yeast membranes, quenched prenylated peptide cleavage fluorescence; calls only; Q03530; hit rate 0.27% among 290,000;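 active = fall in fluorescence gain of 50% or more versus controls, with final raw signal at or below 3038400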;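 note: plate controls were neutral control wells for no effect and wells lacking membranes for full effect; tested at 10 µM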
# Target sequence (Q03530 whole entry, looked up): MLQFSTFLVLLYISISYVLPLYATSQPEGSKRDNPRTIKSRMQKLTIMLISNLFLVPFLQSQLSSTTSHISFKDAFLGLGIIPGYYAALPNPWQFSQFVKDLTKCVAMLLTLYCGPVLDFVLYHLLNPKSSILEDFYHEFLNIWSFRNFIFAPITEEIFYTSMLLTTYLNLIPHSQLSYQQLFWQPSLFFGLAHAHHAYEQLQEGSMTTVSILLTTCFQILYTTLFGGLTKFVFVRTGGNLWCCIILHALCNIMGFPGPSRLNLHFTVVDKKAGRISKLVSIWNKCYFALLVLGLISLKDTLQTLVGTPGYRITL
# eIF4H inh – inhibitors of RNA binding by human eIF4H | Q15056 | eIF4H fluorescence polarization binding assay | inhibition, % at 35 µM | hit rate 0.94% among 290,000 | AID 2012;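 active = 50% or more with normal probe brightness, or confirmed in later tests; about a fifth of its hits are not listed in these tables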;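 note: calls also rest on retests at 20 µM and on dose response follow-up; 0% = protein and probe with vehicle and 100% = probe without protein; strong numbers were not always called active; many hits fall short of the cut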
# eIF4H inh retest – recorded beside eIF4H inh, whose call it bears; inhibition, %; compound at 20 µM; confirmation average;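 mean of two retest wells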
# PABP polyA inh retest – further read-out of PABP polyA inh, marked with its call; inhibition, %; compound at 20 µM; confirmation repeats;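 mean of two retest wells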
# MT1-MMP act inh RFP – second read-out of MT1-MMP act inh, no call of its own (marks repeat the call); RFP signal change, %; measured here: RFP expression control read;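 0 = vehicle wells; hits needed this value within 50% of zero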
# * hit, by the source's call; i = inactive; . = not tested or not shown; & = joins results of further samples.
SMILES,CSC inhib,Env fusion inh,Yeast UUG start,MT1-MMP act inh,MT1-MMP act inh RFP,PABP polyA inh,Rce1 inh,eIF4H inh,others
COc1cc2c(cc1OC)CC1(CCCCC1)N=C2,-9,8,-10,-4,2,6,i,-10,
CCOC(=O)C1=C(C)NC(=O)C1CC(=O)O (configuration not stated),.,33,-13,0,1,0,i,-11,
CN(CC(O)COCc1ccc2c(c1)OCO2)C1CCCCC1 (configuration not stated),-6,4,.,-1,-1,-1,i,1,
O=c1[nH]ncc(N2CCCC2)c1Cl,2,-10,.,-1,2,-2,i,15,
COc1ccc(NC(=O)CCCn2cc([N+](=O)[O-])cn2)cc1,-12,-16,.,0,2,0,i,-9,
CC(C)c1cc(C(=O)N2CCCC(N3CCN(c4ccc(F)cc4)CC3)C2)n(C)n1 (configuration not stated),.,8,-6,-1,-13,-5,i,-7,
CC(C#N)(NC(=O)CN1CCN(S(=O)(=O)c2cccc(F)c2)CC1)C1CC1 (configuration not stated),.,5,-2,0,3,.,.,.,
CSCc1c(C(=O)OCC(=O)NC2CCCCC2)oc2ccccc12,15,-7,-17,6,-1,.,.,.,
O=C(NCCCN1CCN(c2ccccc2F)CC1)C1CCC(=O)N1C1CCCC1 (configuration not stated),-20,.,5,-2,5,3,i,-7,
COc1ccc(CN(C)C(=O)c2ccc3c(=O)n4c(nc3c2)CCC4)cc1,13,-8,-13,-2,-1,0,i,2,
Cc1noc(C)c1S(=O)(=O)N1CCC(C(=O)NC2CCN(Cc3ccccc3)CC2)CC1,10,.,-10,6,-4,2,i,53,eIF4H inh retest=-12;PABP polyA inh retest=8
COc1ccccc1N1CCN(C(=O)c2cc3cc(C)ccc3[nH]2)CC1,-10,-3,-3,-2,-5,3,i,-6,
CCOC(=O)C1CCN(S(=O)(=O)Cc2ccc(Cl)cc2)CC1,.,.,-12,-3,-4,0,i,2,
CCC1C(=O)N=C(SCC(=O)Nc2nc3ccccc3s2)NC1=O (configuration not stated),-21,-5,-13,-1,4,4,i,-2,
CCCc1cc(C(=O)Nc2nnc(C)s2)cs1,0,-98,-10,-5,-8,1,i,6,
Cc1ccc(NC(=O)Cn2c(O)c(N=NS(=O)(=O)c3ccc(C)cc3)c3ccccc32)cc1,9,-1,.,-1,2,1,i,-4,
CCNC(=O)c1sc(=S)n(CC)c1N,1,.,.,.,.,4,i,-11,
CCC(CO)Oc1cc(NC(=O)c2cccc(C)c2)c2ncn(C(C)C)c2c1 (configuration not stated),-5,-28,13&-4,-1,0,.,.,.,
CC(NC(=O)c1ccccc1OC(F)F)c1ccc(-n2ccnc2)cc1 (configuration not stated),-10,-10,-10,0,-5,6,i,-14,
C=C1CCN([C@H](C(=O)O)C(C)C)S(=O)(=O)c2ccccc21,0,-12,-10,-2,1,.,i,.,
N#CCCCSc1nnnn1-c1cccc(Cl)c1,-1,-236,-11,1,3,4,i,0,
Cc1ccc(CN2CCN(Cc3c[nH]c4ccccc34)CC2CCO)o1 (configuration not stated),-18,-17,-14,0,6,11,i,-12,
O=C(O)Cc1csc(Nc2cccc(Cl)c2)n1,3,.,.,-3,-3,-2,i,-3,
COCCNC(=O)c1cccc(OC2CCN(Cc3cccc(C(C)=O)c3)CC2)c1,-3,-1,-4,3,-2,-1,i,7,
CC1CN(C(=O)c2cccc(S(=O)(=O)N3CCOCC3)c2)CC(C)O1 (configuration not stated),-6,-32,-9,1,3,-1,i,-1,
O=C(CN1CCCc2ccccc21)N/N=C/c1ccc(F)cc1F,-11,-28,-22,0,2,2,i,-2,
COc1cccc(OCc2nnc(SC)n2C)c1,-1,30,-8,2,2,6,i,-6,
O=C(C1CC1)N1CCc2sccc2C1c1ccc(Cl)cc1 (configuration not stated),20,32,.,1,-1,-14,i,-10,
Cc1cc(Cl)c2oc(C(=O)N3CCCCC3CCN3CCCC3=O)c(C)c2c1 (configuration not stated),-5,26,-14,-3,-3,0,i,6,
CC(=O)c1ccc(S(=O)(=O)Nc2cccc(-c3ccc4nncn4n3)c2)cc1,4,11,-9,0,-1,10,i,5,

# Some of these compounds in order of SMILES length, rising:
SMILES,CSC inhib,Env fusion inh,Yeast UUG start,MT1-MMP act inh,MT1-MMP act inh RFP,PABP polyA inh,Rce1 inh,eIF4H inh,others
COc1cccc(OCc2nnc(SC)n2C)c1,-1,30,-8,2,2,6,i,-6,
O=C(C1CC1)N1CCc2sccc2C1c1ccc(Cl)cc1 (configuration not stated),20,32,.,1,-1,-14,i,-10,
Cc1cc(Cl)c2oc(C(=O)N3CCCCC3CCN3CCCC3=O)c(C)c2c1 (configuration not stated),-5,26,-14,-3,-3,0,i,6,

# Going on with the list.
SMILES,CSC inhib,Env fusion inh,Yeast UUG start,MT1-MMP act inh,MT1-MMP act inh RFP,PABP polyA inh,Rce1 inh,eIF4H inh,others
CC(=NCCN1CCOCC1)C1=C(O)c2ccccc2C1=O,-12,.,1,7,4,1,i,-9,
Cc1ccc(C(=O)Nc2ccc(N3CCN(C)CC3)nc2)cc1,-15,-4,-3,-1,1,-2,i,19,
CC1CCc2c(sc3ncnc(NCCCOC(C)C)c23)C1 (configuration not stated),-4,.,-16,2,-9,0,i,-6,
CC(=O)Nc1ccc(S(=O)(=O)N2CCC(C(=O)NC3CC3)CC2)cc1,-4,-1,-5,4,2,-5,i,-5,
CC(C)N(Cc1nccn1C)C(=O)CCc1nnc(CCCc2ccccc2)o1,-14,-13,.,-2,0,10,i,-1,
O=S(=O)(NC1CCN(S(=O)(=O)c2c(F)cccc2F)C1)c1ccc2c(c1)OCCO2 (configuration not stated),9,29,-5,1,-22,.,.,.,
Cc1nn(C)c(Sc2ccccc2N)c1[N+](=O)[O-],10,-19,-11,0,-1,-10,i,-5,
Cc1cccc(N2CCN(C(=O)C3CCN(S(=O)(=O)c4c(C)noc4C)CC3)CC2C)c1 (configuration not stated),-6,2,.,.,.,7,i,2,
CC(=NNC(=O)c1ccc(NS(=O)(=O)c2ccc(Br)cc2)cc1)c1cccnc1,-14,7,-9,3,0,.,.,.,
Nc1c(N=Nc2ccccc2F)c(=O)[nH]n1-c1ccccc1,-1,.,.,8,3,4,i,-5,

# Gathered by group: the compounds so far containing a cyano group
SMILES,CSC inhib,Env fusion inh,Yeast UUG start,MT1-MMP act inh,MT1-MMP act inh RFP,PABP polyA inh,Rce1 inh,eIF4H inh,others
CC(C#N)(NC(=O)CN1CCN(S(=O)(=O)c2cccc(F)c2)CC1)C1CC1 (configuration not stated),.,5,-2,0,3,.,.,.,
N#CCCCSc1nnnn1-c1cccc(Cl)c1,-1,-236,-11,1,3,4,i,0,

# Next records follow.
SMILES,CSC inhib,Env fusion inh,Yeast UUG start,MT1-MMP act inh,MT1-MMP act inh RFP,PABP polyA inh,Rce1 inh,eIF4H inh,others
CCN(CC)C(=O)Cn1ccc(NC(C)=O)nc1=O,-1,-7,-15,2,4,7,i,4,
Cc1nnc(SCC(=O)Nc2cccc(Cl)c2)n1CC1CCCO1 (configuration not stated),-9,-3,-23,1,1,5,i,2,
COCc1nnc(SCC(=O)Nc2cccc(Cl)c2C)n1-c1ccccc1,.,.,0,4,2,6,i,-6,
O=C(O)c1cc2cc(OCc3ccccc3)ccc2[nH]1,-7,.,-3,1,2,9,i,11,
CCC(NS(=O)(=O)c1ccc2c(c1)NC(=O)C(C)C(=O)N2)c1cccs1 (configuration not stated),0,-10,-12,-2,2,11,i,-11,
Cc1cccc(C)c1NC(=O)c1cc2c(=O)c3ccccc3oc2nc1C(F)(F)F,.,-76,6,2,9,-4,i,-6,
CCOC(=O)c1cccc(NC(=O)c2ccc(N(C)C)cc2)c1,10,-18,.,9,1,7,i,-4,
CC(=O)Nc1ccc(S(=O)(=O)N2CCn3cccc3C2C)cc1 (configuration not stated),8,.,-1,-5,1,.,.,.,
Cc1cc(C(=O)N2CCN(c3ncccn3)CC2)cs1,-5,-22,-10,0,2,4,i,-2,
CCC(NC(=O)c1ccc(C#CC2(O)CCCCC2)cc1)C(=O)O (configuration not stated),0,2,.,0,2,-4,i,3,

# Five neighbouring records already listed:
SMILES,CSC inhib,Env fusion inh,Yeast UUG start,MT1-MMP act inh,MT1-MMP act inh RFP,PABP polyA inh,Rce1 inh,eIF4H inh,others
Cc1cccc(C)c1NC(=O)c1cc2c(=O)c3ccccc3oc2nc1C(F)(F)F,.,-76,6,2,9,-4,i,-6,
CCOC(=O)c1cccc(NC(=O)c2ccc(N(C)C)cc2)c1,10,-18,.,9,1,7,i,-4,
CC(=O)Nc1ccc(S(=O)(=O)N2CCn3cccc3C2C)cc1 (configuration not stated),8,.,-1,-5,1,.,.,.,
Cc1cc(C(=O)N2CCN(c3ncccn3)CC2)cs1,-5,-22,-10,0,2,4,i,-2,
CCC(NC(=O)c1ccc(C#CC2(O)CCCCC2)cc1)C(=O)O (configuration not stated),0,2,.,0,2,-4,i,3,

# Next part
SMILES,CSC inhib,Env fusion inh,Yeast UUG start,MT1-MMP act inh,MT1-MMP act inh RFP,PABP polyA inh,Rce1 inh,eIF4H inh,others
Cc1sc(NC(=O)c2ccccc2)c(C(c2ccc(Cl)cc2)N2CCN(CCO)CC2)c1C (configuration not stated),27,-23,10,-7,-6,-2,i,-3,
CCOC(=O)c1sc(NC(=O)c2ccc(OC)cc2)nc1C,5,-35,-15,-6,2,3,i,0,
O=C(Nc1ccc(O)cc1)C1CC=CCC1 (configuration not stated),-3,0,-11,20,15,13,i,12,
Cc1nn(CC(=O)O)c(C)c1C,-6,-11,10,2,6,27,i,-1,
CC(=O)Nc1ccc(S(=O)(=O)N2CCN(C(=O)c3ncoc3-c3ccc(F)cc3)CC2)cc1,-11,2,-34,0,1,5,i,-12,
CCn1cc([N+](=O)[O-])c(C(=O)Nc2ccc3c(c2)OCCO3)n1,-29,.,-21,-1,4,10,i,-1,
O=C(NCCc1ccccc1)C(=O)NCC1OCCN1S(=O)(=O)c1ccc2c(c1)OCCO2 (configuration not stated),10,0,17,1,0,7,i,1,
C=CCSc1nnc(-c2cc3c(-c4ccccc4)nn(C)c3s2)n1C,-10,.,-4,0,-6,-2,i,-4,
COc1ccc(S(=O)(=O)NCC2(N3CCOCC3)CCCCC2)cc1OC,.,6,-16,-4,0,.,.,.,
COc1ccc(CNCCC2(Cc3ccccc3)CC(C)N(C)CC2C)cc1OC (configuration not stated),-8,10,.,5,-1,19,i,-2,
Cc1ccc(C(=O)Nc2ccc(S(=O)(=O)N3CCc4ccccc43)cc2)o1,18,23,-7,-3,-5,-11,i,-3,
Cc1onc(-c2c(Cl)cccc2Cl)c1C(=O)NCCCN1CCOCC1,16,.,-9,-2,2,-3,i,3,
CC1CCN(c2nc3c(c(=O)n(C)c(=O)n3C)n2Cc2ccccc2)CC1,8,.,4,-6,-6,1,i,4,
C=CCn1nc(-c2ccccc2)c2c(C)onc2c1=O,5,-2,.,0,6,-14,i,-8,

# Screening data from PubChem.

# This is a subset. The share of hits here may be higher or lower than overall.
